# Screening data: PubChem, several laboratories
# RecA splice inh = blocks M. tuberculosis RecA intein splicing | P9WHJ3 | cell-free RecA intein splicing, fluorescence | inhibition, %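 (about 9 µM by stock and volumes)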 | 0.75% of 290,000 active; in the data active = inhibition above about 30%;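 note: 0% = vehicle wells and 100% = reference inhibitor control wells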
# Target sequence (P9WHJ3 whole entry, looked up, canonical isoform): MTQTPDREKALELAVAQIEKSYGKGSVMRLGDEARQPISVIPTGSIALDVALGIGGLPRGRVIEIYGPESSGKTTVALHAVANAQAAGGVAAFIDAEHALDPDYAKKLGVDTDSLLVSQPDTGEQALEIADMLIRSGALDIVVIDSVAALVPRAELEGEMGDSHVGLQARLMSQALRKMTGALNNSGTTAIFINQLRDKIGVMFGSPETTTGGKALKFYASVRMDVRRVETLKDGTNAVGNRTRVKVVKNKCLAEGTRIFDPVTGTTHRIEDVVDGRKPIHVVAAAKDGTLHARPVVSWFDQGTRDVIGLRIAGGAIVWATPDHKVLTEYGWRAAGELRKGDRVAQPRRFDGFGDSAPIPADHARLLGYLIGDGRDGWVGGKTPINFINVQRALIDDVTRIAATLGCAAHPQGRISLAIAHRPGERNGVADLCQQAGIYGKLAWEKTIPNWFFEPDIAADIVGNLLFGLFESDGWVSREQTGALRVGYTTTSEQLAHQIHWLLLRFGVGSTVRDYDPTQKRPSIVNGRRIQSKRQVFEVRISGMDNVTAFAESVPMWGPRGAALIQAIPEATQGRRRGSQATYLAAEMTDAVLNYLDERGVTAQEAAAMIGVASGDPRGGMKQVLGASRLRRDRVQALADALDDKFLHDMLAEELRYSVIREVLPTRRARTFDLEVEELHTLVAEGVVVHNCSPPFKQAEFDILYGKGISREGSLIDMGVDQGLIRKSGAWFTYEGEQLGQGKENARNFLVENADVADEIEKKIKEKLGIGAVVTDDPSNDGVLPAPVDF
# Arbovirus anti = antivirals against arbovirus infection | arbovirus infection cell-based antiviral screen | inhibition, % at 10 µM | 0.37% of 200,000 active;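 active = inhibition from about 30%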;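 note: bluetongue infection of BSR cells; cell survival read as ATP light after 72 h; 0% = infected wells without compound and 100% = uninfected wells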
# Mtb growth = M. tuberculosis H37Rv growth inhibitors, H37Rv strain (AID 1626); M. tuberculosis H37Rv growth inhibition; higher % means a stronger effect; inhibition, % at 10 µM; hits with a dose series show IC50 in µM; 0.95% of 220,000 active;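 active = confirmed in a dose series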;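 note: bacteria incubated seven days before Alamar blue readout; 0% = bacteria only wells and 100% = bacteria with antibiotic wells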
# Mtb bLac sens = beta-lactam sensitization of Mtb H37Rv; AID 434955; 0.27% of 330,000 active; inhibition, % at 25 µM; M. tuberculosis H37Rv growth with meropenem, percent inhibition; hits of this screen are not shown here;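 active = about 74% or more and at least 40 points above the plate without the antibiotic, then above 30% in a dose series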;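 note: growth measured after seven days incubation then overnight dye step; 0% = bacteria only wells and 100% = bacteria with antibiotic; twin plates without the antibiotic show which effects depend on it; some results filed as inactive read as strong as hits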
# YopH PTP inh = blocks Yersinia enterocolitica YopH tyrosine phosphatase | fluorescence Ex485/Em525 | inhibition, %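 (about 10 µM by stock and volumes)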 | 0.16% of 140,000 active;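 active = inhibition of 50% or more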;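 note: controls were vehicle for no effect and minimum signal wells for full effect; inactives centre near -20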
# Arbovirus anti repeat = further read-out of Arbovirus anti, marked with its call; inhibition, %; measured here: 10K subset replicate screen; many hits read low in the repeat;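 first of two repeat runs on a subset; 0% = infected and 100% = uninfected wells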
# Active calls of the source: *; . = no result given; & = joins results of further samples. The list is partial; count on the stated rates, not on these rows.
SMILES,RecA splice inh,Arbovirus anti,Mtb growth,Mtb bLac sens,YopH PTP inh,others
Cc1ccc(Cn2c(SCC(=O)N3CC(=O)Nc4ccccc43)nc3ccccc3c2=O)cc1,8.9,-7,1%,-12,-10,
COc1ccc(CCN=C(C)C2=C(O)C(c3ccccc3)OC2=O)cc1OC (centres undefined),.,15,-6%,3,.,
CCOC1(OCC)N=C(N)C2(C#N)C(c3cccc(C)c3)C12C#N (centres undefined),-0.7,5,-6%,1,-5,
CC1CN(c2ccc(NC(=S)Nc3ccc(N4CC(C)OC(C)C4)cc3)cc2)CC(C)O1 (centres undefined),-7.0,.,-3%,55,.,
CSc1ccc(C2C(C#N)=C(N)Oc3cc4c(cc32)OCO4)cc1 (centres undefined),-2.5,-16,-3%,3,-33,
CCOc1cccc(CNCCCSc2ncccn2)c1,-5.8,.,.,-1,.,
COc1cccc(NC(=O)C(OC(=O)c2ccccc2NS(=O)(=O)c2cccs2)c2ccccc2)c1 (centres undefined),8.4,8,6%,8,-30,
Cc1ccccc1C(=O)NNC(=O)CCC(=O)Nc1cccc(Cl)c1C,-3.9,-4,-14%,7,-29,
O=C(CN1C(=O)/C(=C\C=C\c2ccccc2)SC1=S)Nc1ccc(F)cc1,2.5,4,7%,-3,-10,
Nc1ccc2nc3c(=O)[nH]c(=S)[nH]c3nc2c1,-26,.,-4%,9,.,
COC(=O)c1ccc(NC(=O)CN(c2ccc(C)cc2)S(=O)(=O)c2c(C)nn(C)c2C)cc1,0.5,-1,-8%,0,-15,
Cc1ccc(-n2nnc3ccccc3c2=O)cc1C,-1.1,1,4%,-2,-32,

# The last 5 records of the section before are carried over, then new ones follow:
SMILES,RecA splice inh,Arbovirus anti,Mtb growth,Mtb bLac sens,YopH PTP inh,others
Cc1ccccc1C(=O)NNC(=O)CCC(=O)Nc1cccc(Cl)c1C,-3.9,-4,-14%,7,-29,
O=C(CN1C(=O)/C(=C\C=C\c2ccccc2)SC1=S)Nc1ccc(F)cc1,2.5,4,7%,-3,-10,
Nc1ccc2nc3c(=O)[nH]c(=S)[nH]c3nc2c1,-26,.,-4%,9,.,
COC(=O)c1ccc(NC(=O)CN(c2ccc(C)cc2)S(=O)(=O)c2c(C)nn(C)c2C)cc1,0.5,-1,-8%,0,-15,
Cc1ccc(-n2nnc3ccccc3c2=O)cc1C,-1.1,1,4%,-2,-32,
O=C(Nc1ccccc1)Nc1ccccn1,-0.5,-4,-4%&-4%,-9,-13,
CN(C)c1ccc(-c2noc(C3CCN(C(=O)Nc4ccc(Cl)cc4)CC3)n2)cc1,2.1,.,.,-10,.,
COc1ccc2cc(S(=O)(=O)n3cnc(C)c3)ccc2c1,1.2,-2,5%,6,.,
COCCN(C(=O)CNC(=O)c1cccs1)C(C(=O)NC(C)(C)C)c1ccccc1 (centres undefined),0.3,7,-13%,-1,.,
Cc1cc(C)cc(C(=O)NC(CC(N)=O)c2ccc(NC3CCCC3)c([N+](=O)[O-])c2)c1 (centres undefined),1.5,.,.,-2,.,
CC(C)c1ccc(/C=C/C(=O)NCCCc2ccccc2)cc1,13,-2,11%,91,-24,
CCOc1ccc(N(CC(=O)NC2CC2)S(=O)(=O)c2ccc(C)cc2)cc1,0.8,.,.,-2,.,
Cc1ccc(S(=O)(=O)N2CCCOC2CNC(=O)C(=O)NCCc2c[nH]c3ccccc23)cc1 (centres undefined),1.2,7,1%,11,-6,
O=C(/C=C/c1ccc(Cl)cc1Cl)c1nc2ccccc2[nH]1,-1.1,7,0%,-8,-36,
O=C1CCC(=O)N1CCc1c[nH]c2ccccc12,-0.9,2,-1%,-15,-5,
CC(C)c1ccc(N(CC(=O)O)S(=O)(=O)c2cccnc2)cc1,2.0,0,-6%,-3,-35,Arbovirus anti repeat=2
CC(=O)Nc1ccc(C(=O)OCc2ccccc2Br)cc1,-0.7,8,0%,0,.,

# By substructure, those above with two or more sulfur atoms.
SMILES,RecA splice inh,Arbovirus anti,Mtb growth,Mtb bLac sens,YopH PTP inh,others
COc1cccc(NC(=O)C(OC(=O)c2ccccc2NS(=O)(=O)c2cccs2)c2ccccc2)c1 (centres undefined),8.4,8,6%,8,-30,
O=C(CN1C(=O)/C(=C\C=C\c2ccccc2)SC1=S)Nc1ccc(F)cc1,2.5,4,7%,-3,-10,

# Other results follow:
SMILES,RecA splice inh,Arbovirus anti,Mtb growth,Mtb bLac sens,YopH PTP inh,others
O=C1CC(Cc2ccc(Cl)cc2)C(=O)N1c1cc(Cl)ccn1 (centres undefined),1.0,.,-4%,1,.,
Cc1cccc(-n2c(CNC(=O)c3ccc(S(=O)(=O)N4CCCCC4)cc3)n[nH]c2=S)c1,2.8,.,.,-5,.,
Cc1ccc2c(O)c(C)c(=O)[nH]c2n1,3.0,-4,-5%,-2,.,
COc1ccc(CCNC(=O)CSc2nnc3ccc(-c4ccccn4)nn23)cc1OC,-0.5,.,.,-6,.,
N#CC1(NC(=O)COC(=O)C23CC4CC(CC(O)(C4)C2)C3)CCCCC1,-1.4,.,.,-15,.,
Fc1ccc(-c2nc3c(-c4ccc(Cl)cc4)cnn3cc2CCN2CCOCC2)cc1,-4.3,5,3%,15,.,
C=CCc1ccccc1OCCn1ccnc1,-2.5,1,-5%,-2,-4,
CC1=C(C#N)C2(O)C(=O)c3ccccc3C2(O)N1 (centres undefined),0.6,-12,-3%,-20,.,
O=C1c2ccccc2-c2nc3ccccc3cc21,6.1,.,.,4,.,
CC(C)CCN1CCN(Cc2ccc(C#CCCO)cc2)CC1CCO (centres undefined),0.9,-11,6%,1,.,
COC(=O)c1ccccc1NC(=O)C1CC(=O)N(c2ccccc2)C1 (centres undefined),0.6,2,-12%,-18,-5,
Cn1c(=O)c2c(nc(NCc3ccc4c(c3)OCO4)n2C)n(C)c1=O,-2.2,8,3%,6,-28,
Cc1cc(=O)oc2c(C)c(OC(C)C(=O)NCCCN3CCOCC3)ccc12 (centres undefined),-0.8,.,.,-4,.,
CCOC(=O)c1c(C)[nH]c(C)c1C(=O)CSc1nc2ccccc2n1CCOC,2.7,9,-1%,6,-21,
N=c1n(CCN2CCOCC2)c2ccccc2n1CC(=O)c1cccc([N+](=O)[O-])c1,1.5,.,.,11,.,
CCCCNC(=O)c1nc2ncc(Br)cn2n1,-2.0,9,-7%,-9,7,
CC(Oc1ccccc1Cl)C(=O)/C=C/N(C)C (centres undefined),.,-1,7%,-2,-31,
Cc1cc(NC(=O)CC#N)n(-c2ccccc2)n1,.,2,3%,5,.,
Cc1nc(CCNC(=O)CC2C(=O)NCCN2Cc2ccccc2F)sc1C (centres undefined),2.6,.,-2%,3,.,
O=C(CN1CCCc2ccccc21)N1CCc2ccccc21,-1.2,.,-6%,2,.,
CCOC(=O)Cc1cnc(NC(=O)CSc2nc(C)cc(C)n2)s1,0.5,-1,-9%,-2,.,
Cc1ccc(NC(=O)C(=O)NCc2ccc(/C=C(/C#N)C(=O)NCc3cccnc3)o2)cc1,-0.7,-2,1%,6,-13,
Cc1cn(CCC(=O)Nc2ccccc2N2CCOCC2)c2ccccc12,1.7,.,5%,-3,.,
CC(C)OC(=O)/C(=C\c1cccnc1)NC(=O)c1ccccc1,-4.1,-2,3%,-8,.,
O=C(NCCCN1CCCCC1)C1CCC(=O)N1CCc1ccccc1 (centres undefined),1.7,-1,-4%,-3,-48,
C=CCn1c(C2CC(=O)N(c3ccc(C)cc3)C2)nc2ccccc21 (centres undefined),0.9,4,-1%,3,-47,
Cc1cc(/C=C\c2ccccc2)nc2ccccc12,.,1,1%,96,.,
CC(O)[C@@]1(O)CC[C@H]2[C@@H]3CC[C@H]4C[C@@H](O)CC[C@]4(C)C3=CC[C@@]21C (some centres undefined),-1.6,.,.,2,.,
CC(C)(C)OC(=O)NC(Cc1ccccc1)C(=O)N1CCC(C(=O)NCC(=O)Nc2ccc(F)cc2)CC1 (centres undefined),-1.9,.,.,4,.,
O=C(CSc1nnc(-c2ccc(F)cc2)o1)N1CCCCC1,0.0,.,.,76,.,
CC1/C(=N/O)C(CN(C)C)C2CC1C2(C)C (centres undefined),-0.5,10,-11%,-1,-26,
CC(N=Cc1nc(-c2ccccc2)oc1O)c1ccccc1 (centres undefined),6.4,-10,11%,-1,-17,
O=C(O)Cn1cc(/C=C2\C(=O)NC(=O)N(c3ccc(Br)cc3)C2=O)c2ccccc21,-2.4,.,.,9,.,
CC(=O)c1cccc(NC(=O)CSc2nc(=O)n(CCN3CCOCC3)c3c2CCC3)c1,1.6,.,.,-10,.,
COCC1CCCN(C(=O)c2ccc3oc(Cc4ccc(Cl)cc4)nc3c2)C1 (centres undefined),5.3,.,.,45,.,
COC(=O)C1=NN(C(=O)c2ccccc2)C(C)(O)C1 (centres undefined),-0.6,8,-11%,-6,9,
N=c1c2c(-c3ccccc3)c(-c3ccccc3)n(Cc3ccccc3)c2ncn1CCCO,13,-27,20%,6,9,
O=C(CCc1nnc(Cc2ccc(-c3ccccc3)cc2)o1)NCCc1cccnc1,-2.2,8,7%,-7,.,
OC(COc1ccccc1)CN1C2=NCCCN2c2ccccc21 (centres undefined),4.9,7,-6%,-7,-9,
CC(C)Cn1c(N)c(C(=O)COC(=O)c2cccc(F)c2)c(=O)n(C)c1=O,.,25,1%,.,.,
Cc1cc(NC(=O)COC(=O)c2ccc(F)c(S(=O)(=O)N3CCOCC3)c2)no1,0.9,10,-3%,-5,-36,Arbovirus anti repeat=-1
Cc1cc(C(=O)NC2CCCc3ccccc32)c(C)o1 (centres undefined),1.6,-1,4%,10,-20,
CN(CC(=O)Nc1ccc(S(=O)(=O)N2CCCC2)cc1)Cc1ccc(Cl)c(Cl)c1,12,-5,3%,2,-12,
CC(C)(C)c1ccc(S(=O)(=O)Nc2ccc(Cc3ccncc3)cc2)cc1,8.5,12,3%,8,-22,
CCc1ccc(CN(C)C(=O)C2CCC(=O)N(CC3CCCCC3)C2)cc1 (centres undefined),1.1,.,.,-4,.,
O=C(Nc1nnc(S(=O)(=O)N2CCOCC2)s1)c1ccccc1,-1.4,.,.,8,.,
Cc1c(C(=O)N/N=C/c2cccnc2)sc(N)c1C#N,-0.3,.,.,4,.,
CC(C)OC(=O)c1c(NC(=O)c2cnn3c2NC(c2ccccc2)CC3C(F)F)sc2c1CCCC2 (centres undefined),0.5,10,.,3,-22,
CCOC(=O)CN(C)C(=O)CCc1nnc(-c2ccsc2)o1,-1.9,-1,100%,-10,.,
